HSD17B inh: HSD17B dehydrogenase inhibition; recombinant HSD17B10, NADH fluorescence kinetic; many of its hits are not listed in these tables; Potency, µM (highest dose often 57.1 µM), inactives show at the highest dose activity change, negative = inhibition, most hits filed as inhibitors; 75,000 tested, 7.6% active; AID 893; active means well fitted inhibition curve with a large enough effect; inconclusive means small, poorly fitted or top-dose-only effect; inactive means no such curve, though single readings can be large or run the other way;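 further: the protocol describes HADH2 (HSD17B10) and not the HSD17B4 of the title; nearly all actives have a fitted effect of over 70% in size; most hits overshoot -100% by far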
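Activity followed as NADH fluorescence increase (ex 360, em 450 nm) every 30 seconds for 4 min, using final 90 uM beta-hydroxybutyryl CoA and 1 mM NAD+. Recombinant His-tagged enzyme, 20 nM, pH 9.0 Tris buffer, 15 min compound preincubation.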
* hit, by the source's call; ? = inconclusive; [ ] = another dose, or the depositor's remark. On the % scale 0 is the no-effect control and ±100 the full control effect; potency means the concentration at half of the fitted maximal effect. This is a subset; the hit share may differ from the screen's.

SMILES | HSD17B inh
Cc1ccc(NC(=O)CSc2nnc(Cc3cccn3C)n2-c2ccc(F)cc2)c(C)c1 | 14%
O=C(O)CCSCC(=O)c1ccc2c(c1)OCCO2 | ?
CCc1ccc(NC(=O)CSc2nnc(-c3ccccn3)n2C)cc1 | -1%
O=C(c1cccc(C(F)(F)F)c1)N1CCN(C2CCCCC2)CC1 | -4%
CCOc1ccc(N2C(=O)CC(N(O)c3ccccc3)C2=O)cc1 (stereo unspecified) | 8%
CCc1ccc(C2C(C#N)=C(N)SC(N)=C2C#N)cc1 | 25µM*
O=C(O)C1CC=CCC1C(=O)NCc1ccccc1 (stereo unspecified) | ?
O=C(c1cc(-c2cccc(O)c2)on1)N1CCc2ccccc2C1 | -25%
COc1ncc2ncc(=O)n(Cc3ccc(F)cc3)c2n1 | 2%
O=C(COC(=O)c1ccncc1)NCc1ccccc1 | 13%
CC1(C)CC(=O)C(C(C2=C(O)CC(C)(C)CC2=O)c2cccnc2)C(=O)C1 (stereo unspecified) | -5%
O=C1C=C(N2CCN(C(=O)c3ccccc3)CC2)C2(CCCCC2)O1 | -3%
O=C(O)CCCCCNC(=O)c1cccc(Br)c1 | 1%
CCOC(=O)C1CCN(C(=O)c2cc(OCC)c(OCC)c(OCC)c2)CC1 | 1%
CCOc1ccccc1N(CC(=O)NC1CCCC1)C(=O)CCCC(=O)Nc1ccccn1 | 4%
O=C(CCN1CCOCC1)Nc1ccc(F)cc1F | -2%[11.4 µM]
Cc1ccc(NC(=O)CC2SC3=NCCN3C2=O)cc1 (stereo unspecified) | -22%
CC(C)(C)c1cc(Cc2ccccc2)[nH]n1 | 7%
COc1ccc(N2CCN(Cc3cc(=O)oc4cc(-c5ccccc5)c(O)cc34)CC2)cc1 | 8%
COc1ccc(N2CCN(C(=O)c3ccc(S(=O)(=O)N4CCOCC4)cc3)CC2)cc1 | -1%
O=C(Nn1cnc2ccccc2c1=O)c1ccc(F)cc1Cl | 8%
CCOc1ccc2c(c1)cc(CN(C(=O)CC)C1CCCCC1)c1nnnn12 | -27%
O=C(Nc1ccc2c(c1)OCO2)N1CCOCC1 | -7%
CCOC(=O)C1CCN(C(=O)C2CC(=O)N(c3ccc(C)cc3)C2)CC1 (stereo unspecified) | 1%
CCO/C(C)=C1\C(=O)N(CC)c2ccccc21 | -4%
SMILES | HSD17B inh
COc1ccc(-c2nnc3ccc(SCC(=O)N4CCCCCC4)nn23)cc1OC | 8%
CC(NCC1(N2CCOCC2)CCCCC1)C(=O)N1CCc2ccccc21 (stereo unspecified) | 8%
CC(=O)Nc1ccc(NC(=O)Cn2c(CC(=O)N3CCCC3)nc3ccccc32)cc1 | 5%
CC(=O)NC(C)C(=O)OCC(=O)Nc1ccc(Br)cc1 (stereo unspecified) | -4%
Cc1ccc(N(C(=O)Nc2ccccc2)C2=NCC(C)S2)cc1 (stereo unspecified) | -11%
Cc1cccc(NC(=O)CC2SC(=NC3CCCCC3)NC2=O)c1 (stereo unspecified) | 3%
CCC(C)(C)NC(=O)CN(CC1CCCO1)C(=O)CCC(=O)Nc1nccs1 (stereo unspecified) | -21%
CC(=O)N1C(c2ccccc2)CC(=O)OC1c1ccc2c(c1)OCO2 (stereo unspecified) | 7%
Cc1nn(Cc2ccc(Cl)c(Cl)c2)c(C)c1NC(=O)c1cc(CC(C)C)on1 | 0%
O=C(Nc1nnc(CCc2ccccc2)s1)C1CCCO1 (stereo unspecified) | -4%
Cn1nnc(NCc2cc(Br)ccc2OCc2cccs2)n1 | -20%
CC(=O)N1CCc2cc(S(=O)(=O)CCC(=O)O)ccc21 | -10%
COc1cc(NC2=CC(=O)CC(C)(C)C2)cc(OC)c1 | -4%
CCN(CC)CCN1C(=O)c2oc3ccccc3c(=O)c2C1c1ccc(C)cc1 (stereo unspecified) | 0%
COc1ccc(CCNC(=O)c2cnccn2)cc1 | 1%
Cc1ccc(-c2cc3c(nn2)-c2ccccc2C3=O)cc1 | -3%
O=C(O)CP(=O)(c1ccccc1)c1ccccc1 | 3%
Cc1ccsc1C1C2=C(CCCC2=O)Nc2ncnn21 (stereo unspecified) | 75%[activator]
COc1ccc(COC(=O)N/N=C2/C[C@@H](O)[C@@H](O)[C@@H]3[C@@H]4C(=O)N(c5cccc(Oc6ccccc6)c5)C(=O)[C@H]4CC[C@H]23)cc1 | -1%[11.4 µM]
c1ccc(-n2nnnc2Oc2cccc3cccnc23)cc1 | -3%
CC1Cc2ccccc2N1C(=O)COC(=O)C1=COCCO1 (stereo unspecified) | -9%
COc1cc(C)cc(OC)c1/C=C\C(=O)O | 1%[11.4 µM]
Cc1oc(C)c(C(=O)NCCCC(=O)O)c1C(=O)NCCCC(=O)O | -8%
Cc1ccc(-n2nnnc2SCCNS(=O)(=O)c2ccccc2)cc1C | 0%
COc1ccc(CC(=O)OCc2cc3cccc(C)c3[nH]c2=O)cc1 | ?
SMILES | HSD17B inh
OCn1ncn(-c2ccccc2)c1=S | -2%
CC(=O)N1CCc2cc(S(=O)(=O)NC(CC(C)C)C(=O)Nc3ccc4c(c3)OCCO4)ccc21 (stereo unspecified) | -4%
Cc1nc(CN2CCCCC2)c(O)c(=O)[nH]1 | 1%[11.4 µM]
O=C(CCOc1ccccc1)NCc1ccccc1 | 0%
CC(C)Cc1ccc(C#N)c(SCC(N)=O)n1 | 5%
COc1ccc2c(c1)c(=O)cc(C)n2CC(=O)NCc1ccco1 | -12%
CCOC(=O)c1c(N)sc2c1CCC(C)C2 (stereo unspecified) | -21%
CC(=O)N1CCC2(CCCN(c3cccc(-c4ccccc4)c3)C2)CC1 | ?
COc1ccc(S(=O)(=O)N2CCCC(C(=O)NCc3ccncc3)C2)cc1 (stereo unspecified) | -6%
O=C(CS(=O)(=O)Cc1ccccc1)Nc1nc2ccccc2s1 | -8%
O=S(=O)(Cc1ccccc1)NCc1cccnc1 | 5%
Cc1nnc(SCC(=O)c2c(N)n(C)c(=O)n(C)c2=O)[nH]c1=O | 3%
O=C1CN(C(=O)COC(=O)C23CC4CC(CC(O)(C4)C2)C3)c2ccccc2N1 | 1%
CN(C)Cc1ccccc1-c1cc(Nc2ccccc2)ncn1 | 1%
CC(C#N)On1c(SC(C)C#N)nc2ccccc2c1=O (stereo unspecified) | -1%
Cc1nc2ncnn2c(C)c1CCC(=O)O | ?
Cc1ccc2cccc(S(=O)(=O)N3CCN(c4cccc(Cl)c4)CC3)c2n1 | -20%
COc1ccc(Oc2ncc3nc(-c4cccc(C#N)c4)c(=O)n(CCC#N)c3n2)cc1 | ?
CO[C@H]1COC(=O)[C@@H](C)COC(=O)[C@@H](COCc2ccccc2)NC(=O)C/C=C\[C@H]1C | 4%[11.4 µM]
O=C(Cn1cnc2c(oc3ccccc32)c1=O)N1CCN(c2ccccc2)CC1 | -1%
CCOC(=O)CSC1=C(C#N)C(c2ccccc2C)C2=C(CCCC2=O)N1 (stereo unspecified) | 58%[activator]
CC(C)Sc1nnc([C@@H]2CCCN2C(=O)OC(C)(C)C)o1 | 12%
CC(C)NC(=O)[C@@H]1C[C@H]1[C@@H](NC(=O)OCc1ccccc1)c1ccccc1 | 18%
O=C(C1CCN(S(=O)(=O)c2cccc3nsnc23)CC1)N1CCc2ccccc2C1 | -2%
COc1cccc(N2CC(C)Cn3c2nc2c3c(=O)n(CCN3CCOCC3)c(=O)n2C)c1 (stereo unspecified) | -12%

Four entries out of the list, ordered by molar mass, smallest number first.
SMILES | HSD17B inh
O=S(=O)(Cc1ccccc1)NCc1cccnc1 | 5%
Cc1nnc(SCC(=O)c2c(N)n(C)c(=O)n(C)c2=O)[nH]c1=O | 3%
Cc1ccc2cccc(S(=O)(=O)N3CCN(c4cccc(Cl)c4)CC3)c2n1 | -20%
CO[C@H]1COC(=O)[C@@H](C)COC(=O)[C@@H](COCc2ccccc2)NC(=O)C/C=C\[C@H]1C | 4%[11.4 µM]

(cont.)
SMILES | HSD17B inh
CC(C)(C)NC1=CC(=O)OC12CCCCC2 | 12%
CCC(=O)OCC(=O)[C@@]1(OC(=O)CC)[C@H](C)C[C@@H]2[C@@H]3[C@H]([C@@H](O)C[C@@]21C)[C@]1(C)C=CC(=O)C=C1C[C@@H]3Cl | -1%[25.6 µM]
CCC(=O)Nc1cccc(-c2cn3ccsc3n2)c1 | -1%
CS(=O)(=O)N1CCc2cc(C(=O)N3CCCCC3)ccc21 | 11%
CC(=O)Nc1ccc(S(=O)(=O)NCC(C)NS(=O)(=O)c2ccc(NC(C)=O)cc2)cc1 (stereo unspecified) | -11%
CCN(CC)C(=O)C1=C(C)NC(=O)NC1c1c(F)cccc1Cl (stereo unspecified) | 6%
COc1cc(O)ccc1C(C)=O | -7%
CCS(=O)(=O)N1CCC(C(=O)NCc2ccco2)CC1 | 10%
CCOC(=O)N1CCN(S(=O)(=O)c2ccc3[nH]c(=O)sc3c2)CC1 | 1%
COC(=O)c1ccc(CSc2nc3c(cnn3-c3ccc(C)cc3)c(=O)[nH]2)o1 | 6%
CC12C(=O)N(c3ccccn3)C(=O)C1C1C=CC2C1 (stereo unspecified) | 9%
c1ccc(C(NCCNC(c2ccccc2)c2ccccc2)c2ccccc2)cc1 | -3%
Nc1ccccc1S(=O)(=O)O | -5%
COc1ccc(OC)c(NC(=O)C2CCCN(S(=O)(=O)c3c(C)noc3C)C2)c1 (stereo unspecified) | -3%
FC(F)(F)c1ccccc1-c1nccc(-n2ccnc2)n1 | 25µM*
COc1cccc(C2(O)CCN(C(=O)C3CC3)CC2)c1 | 8%
Cc1ccc2c(c1)c1c3n2CCN[C@H]3CCC1 | 25µM*
O=S(c1ccsc1)c1ccsc1 | 11%
CCOC(=O)c1ccc2nc(NC(=O)C(C)C)sc2c1 | 14%
CCCCOC(=O)Cn1c(=O)oc2ccc(C)cc21 | -1%
CN(C)c1ccc(NC(=O)Cn2ncn3c(cc4ccccc43)c2=O)cc1 | -9%
CC1CCN(C(C(=O)Nc2ccc3c(c2)OCO3)c2ccccc2)CC1 (stereo unspecified) | 4%
C=CCNS(=O)(=O)c1ccc2nsnc2c1 | 4%
COc1ccc(OC)c(C2N(c3ccc(Cl)cc3)C(=O)C3CCCN32)c1 (stereo unspecified) | 0%
Cc1ccc(-n2ncc3c(=O)n(CC(=O)N4CCCc5ccccc54)cnc32)cc1C | ?

Compounds from the list above with a COOH group, in the order listed:
SMILES | HSD17B inh
O=C(O)CCSCC(=O)c1ccc2c(c1)OCCO2 | ?
O=C(O)C1CC=CCC1C(=O)NCc1ccccc1 (stereo unspecified) | ?
O=C(O)CCCCCNC(=O)c1cccc(Br)c1 | 1%
CC(=O)N1CCc2cc(S(=O)(=O)CCC(=O)O)ccc21 | -10%
O=C(O)CP(=O)(c1ccccc1)c1ccccc1 | 3%
COc1cc(C)cc(OC)c1/C=C\C(=O)O | 1%[11.4 µM]
Cc1oc(C)c(C(=O)NCCCC(=O)O)c1C(=O)NCCCC(=O)O | -8%
Cc1nc2ncnn2c(C)c1CCC(=O)O | ?

The list goes on:
SMILES | HSD17B inh
O=C(CN(CCc1ccccc1)C(=O)Cn1nnc(-c2cccs2)n1)NCc1ccco1 | 6%
CC1(CCC(=O)OC2CCCCC2)OCCO1 | 8%[11.4 µM]
CC(=O)NCCNc1cc(-c2ccccc2C)ncn1 | 0%
CCOc1cc(NC(=O)C2CCCCC2)c(OCC)cc1NC(=O)c1ccco1 | -2%
Cc1ccc2cc(CN(CCCO)S(=O)(=O)c3cccc4nsnc34)c(=O)[nH]c2c1C | -3%
Cn1c(NC(=O)c2ccccc2NC(=O)C(C)(C)C)nc2ccccc21 | 77%[activator]
COC(=O)c1ccc(-n2nnnc2SCc2nn[nH]n2)cc1 | 7%
O=C(CCn1c(=O)oc2ccccc21)Nc1ccccc1 | -6%
CCOC(=O)c1[nH]c(C)c(C(=O)N2CCOCC2)c1C | 2%
C=CCNC(=O)c1cc([N+](=O)[O-])cc2c(=O)[nH]c(Nc3ccc(Cl)c(Cl)c3)nc12 | 13µM*
Cc1cccc(OCC(O)Cn2c(=N)n(CCN3CCOCC3)c3ccccc32)c1 (stereo unspecified) | -3%
COc1ccc(Cc2nnc(NC(=O)C3CCCO3)s2)cc1 (stereo unspecified) | 9%
Cc1ccc(S(=O)(=O)N(CC(=O)O)Cc2ccccc2F)cc1 | 2%
Cc1[nH]nc(N=CC2=C(O)CC(C)(C)CC2=O)c1-c1ccccc1 | -17%
O=C(CSc1nc2ccccc2s1)NCCCN1CCOCC1 | -10%
Cc1occc1-c1nnc(SCC(=O)Nc2ccccc2)n1C(C)c1ccccc1 (stereo unspecified) | -11%
CCOC(=O)C1CCN(c2c(NCc3ccc(C(=O)NCCC(C)C)cc3)c(=O)c2=O)CC1 | 12%
CCOC(=O)Nc1ccc2c(c1)N(C(=O)CN1CCN(C)CC1)c1ccccc1S2 | -1%
C=CCSc1nncn1/N=C/c1ccc(OC)cc1 | -14%
CN=C(Nc1cc(C)nn1CCC#N)c1ccc(F)cc1 | 1%
CCOC(=O)c1sc(NC(=O)c2cccnc2)nc1C | -13%
CCOc1ccc(C(F)(F)F)cc1NC(C)=O | -1%
CCOC(=O)/C(C#N)=C1/C=CNC(=O)N1 | -13%
CC1Cc2ccccc2N1C(=O)CSc1nc2cc3c(cc2cc1C#N)OCO3 (stereo unspecified) | ?
CCC(C)(NC(=O)c1ccc(=O)[nH]c1)C(=O)NC1CCCC1 (stereo unspecified) | 3%
COc1ccc(CCNC(=O)CSC2=Nc3ccccc3C3=NC(C(C)C)C(=O)N23)cc1OC (stereo unspecified) | ?
O=C(Nc1cccnc1)c1ccc(Br)s1 | 3%
CC(=O)Nc1ccc(S(=O)(=O)NCCC(=O)OCCN2C(=O)c3ccccc3C2=O)cc1 | 1%
O=C1c2ccccc2C(=O)N1CCc1nc2ccccc2c(=O)n1CCCn1ccnc1 | 4%

Screening data deposited in PubChem by National Center for Advancing Translational Sciences (NCATS).
